Source: PubChem BioAssay (Broad Institute)
FGF22 binding: FGF22 (human) thermal shift binding | recombinant FGF22 thermal shift, SYPRO orange fluorescence; percent of sucrose octasulfate shift, DMSO zero | calls only at 9.99 µM | actives 1.5% (n = 340,000);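 active = melting point raised past a set limit in the mean and every replicate; three in four hits are not shown here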
Target sequence (Q9HCT0 whole entry, looked up): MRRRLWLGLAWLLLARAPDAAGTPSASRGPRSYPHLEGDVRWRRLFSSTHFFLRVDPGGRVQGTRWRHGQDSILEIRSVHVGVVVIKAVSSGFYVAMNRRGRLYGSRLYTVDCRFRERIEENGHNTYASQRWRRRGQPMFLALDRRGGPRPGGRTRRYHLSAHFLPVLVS
Calls only; i = inactive.

SMILES	FGF22 binding
COc1ccccc1CNC(=O)C[C@H]1CC[C@H]2[C@@H](COC[C@@H](O)CN2Cc2cccc(-c3ccncc3)c2)O1	i
C[C@@H]1CN([C@H](C)CO)C(=O)c2cc(C#Cc3ccc(F)cc3)cnc2O[C@H]1CN(C)CC1CCOCC1	i
Cc1ccc(S(=O)(=O)N(C)C[C@@H]2Oc3cc(-c4cccc(F)c4)ccc3S(=O)(=O)N([C@H](C)CO)C[C@H]2C)cc1	i
CCCNC(=O)[C@H]1[C@H](CO)[C@H]2Cn3c(ccc(-c4ccccc4)c3=O)[C@H]2N1CC	i
CO[C@H]1CN(C)C(=O)c2cc(NC(=O)Nc3c(C)noc3C)ccc2OC[C@@H](C)N(C)C[C@@H]1C	i
O=C(N[C@@H]1CC[C@@H](CCNS(=O)(=O)c2ccc(F)cc2)O[C@@H]1CO)C1CC1	i
C[C@@H]1CN([C@@H](C)CO)C(=O)c2cc(NS(C)(=O)=O)ccc2O[C@@H]1CN(C)C(=O)Nc1ccc2c(c1)OCO2	i
C[C@H]1CCCCO[C@H](CN(C)C(=O)NC2CCCCC2)[C@@H](C)CN([C@@H](C)CO)C(=O)c2cc(NS(=O)(=O)c3ccc(Cl)cc3)ccc2O1	i
C[C@@H]1COc2cccc(NCCCN3CCOCC3)c2S(=O)(=O)N1	i
COc1ccccc1CN1[C@H](CO)[C@H]2c3ccccc3N(C(=O)c3ccncc3)C[C@H]21	i
CCC(=O)N1CC2(C1)[C@H](c1ccc(-c3cccc(F)c3)cc1)[C@@H](CO)N2CC1CC1	i
C[C@H](CO)N1C[C@H](C)[C@@H](CN(C)C)Oc2ccc(NC(=O)c3ccncc3)cc2C1=O	i
COc1cccc(C#Cc2ccc([C@H]3[C@@H](CO)N4C(=O)CN(S(=O)(=O)c5ccccc5C)C[C@H]34)cc2)c1	i
CC(C)NC(=O)Nc1ccc2c(c1)C(=O)N([C@H](C)CO)C[C@H](C)[C@H](CN(C)C(=O)Nc1ccc(C(F)(F)F)cc1)O2	i
CC(C)NC(=O)N1CCCCN2[C@H](CO)[C@@H](c3ccc(Br)cc3)[C@@H]2C1	i

4 compounds already listed, ordered by molar mass, smallest number first:
SMILES	FGF22 binding
CCC(=O)N1CC2(C1)[C@H](c1ccc(-c3cccc(F)c3)cc1)[C@@H](CO)N2CC1CC1	i
CO[C@H]1CN(C)C(=O)c2cc(NC(=O)Nc3c(C)noc3C)ccc2OC[C@@H](C)N(C)C[C@@H]1C	i
C[C@@H]1CN([C@@H](C)CO)C(=O)c2cc(NS(C)(=O)=O)ccc2O[C@@H]1CN(C)C(=O)Nc1ccc2c(c1)OCO2	i
Cc1ccc(S(=O)(=O)N(C)C[C@@H]2Oc3cc(-c4cccc(F)c4)ccc3S(=O)(=O)N([C@H](C)CO)C[C@H]2C)cc1	i

(list continues)
SMILES	FGF22 binding
CO[C@@H]1CN(C)C(=O)c2ccc(NS(=O)(=O)c3ccc(Cl)cc3)cc2OC[C@@H](C)N(C(=O)NC(C)C)C[C@H]1C	i
CCC(=O)N1[C@H](CO)[C@@H](c2ccc(/C=C/c3ccccc3)cc2)C12CN(S(C)(=O)=O)C2	i
CCNC(=O)C[C@@H]1CC[C@@H]2[C@H](COC[C@H](O)CN2C(=O)c2cccnc2)O1	i
O=C(c1cccc(F)c1)N1C[C@@H]2[C@H](c3ccccc31)[C@H](CO)N2C(=O)c1ccc(F)cc1	i
Cn1cnc(CCNC(=O)C[C@H]2CC[C@H]3[C@@H](COC[C@@H](O)CN3C(=O)C3CC3)O2)c1	i
CN1C(=O)c2cc(NC(=O)Cc3cccs3)ccc2OC[C@H]2O[C@H](CC(=O)NCCc3ccncc3)CC[C@@H]21	i
CCNC(=O)Nc1ccc2c(c1)C(=O)N(C)[C@@H]1CC[C@@H](CC(=O)NCc3ccc(F)cc3)O[C@@H]1CO2	i
CC(C)NC(=O)Nc1cccc2c1O[C@H](CN(C)Cc1ccccc1)[C@H](C)CN([C@H](C)CO)C2=O	i
CCC(=O)N(C)C[C@@H]1Oc2cc(C#CC3(O)CCCC3)ccc2S(=O)(=O)N([C@H](C)CO)C[C@@H]1C	i
C[C@@H]1CCCCO[C@@H](CN(C)C(=O)C2CCCCC2)[C@H](C)CN([C@@H](C)CO)C(=O)c2cc(NC(=O)Cc3ccccc3)ccc2O1	i
COc1ccccc1NC(=O)N[C@@H]1CC[C@H](CCNS(=O)(=O)c2ccccc2)O[C@@H]1CO	i
CC(C)NC(=O)N(C)C[C@H]1Oc2ccc(NS(C)(=O)=O)cc2CC(=O)N([C@H](C)CO)C[C@@H]1C	i
O=C(C[C@@H]1CC[C@@H](NC(=O)NC2CCCC2)[C@H](CO)O1)NCc1ccc(F)cc1	i
O=C(C[C@H]1C[C@@H]2c3cc(NS(=O)(=O)c4ccc(F)cc4)ccc3O[C@@H]2[C@@H](CO)O1)NCc1ccncc1	i
COc1cccc(NC(=O)C[C@H]2CC[C@@H]3[C@H](COc4ccc(NC(C)=O)cc4C(=O)N3C)O2)c1	i

Molecules from the list above that have a Cl atom (two):
SMILES	FGF22 binding
C[C@H]1CCCCO[C@H](CN(C)C(=O)NC2CCCCC2)[C@@H](C)CN([C@@H](C)CO)C(=O)c2cc(NS(=O)(=O)c3ccc(Cl)cc3)ccc2O1	i
CO[C@@H]1CN(C)C(=O)c2ccc(NS(=O)(=O)c3ccc(Cl)cc3)cc2OC[C@@H](C)N(C(=O)NC(C)C)C[C@H]1C	i

Reprinted at random: four records from the list.
SMILES	FGF22 binding
COc1ccccc1NC(=O)N[C@@H]1CC[C@H](CCNS(=O)(=O)c2ccccc2)O[C@@H]1CO	i
CC(C)NC(=O)Nc1cccc2c1O[C@H](CN(C)Cc1ccccc1)[C@H](C)CN([C@H](C)CO)C2=O	i
CCC(=O)N1[C@H](CO)[C@@H](c2ccc(/C=C/c3ccccc3)cc2)C12CN(S(C)(=O)=O)C2	i
O=C(C[C@@H]1CC[C@@H](NC(=O)NC2CCCC2)[C@H](CO)O1)NCc1ccc(F)cc1	i

The listing continues.
SMILES	FGF22 binding
CC(=O)N1[C@H](CO)[C@H](c2ccccc2)[C@H]1CN(C)S(=O)(=O)c1ccccc1	i
Cc1ccc(S(=O)(=O)Nc2ccc3c(c2)C(=O)N([C@H](C)CO)C[C@H](C)[C@H](CN(C)C(=O)NC2CCCCC2)OCCCC[C@@H](C)O3)cc1	i
CC(C)NC(=O)Nc1ccc2c(c1)CC(=O)N([C@H](C)CO)C[C@@H](C)[C@H](CN(C)Cc1ccc(Oc3ccccc3)cc1)O2	i
O=C(N[C@H]1CC[C@@H](CC(=O)N2CCOCC2)O[C@H]1CO)c1ccc2c(c1)OCO2	i
C[C@@H]1CN([C@@H](C)CO)C(=O)Cc2cc(NS(=O)(=O)c3ccc(Cl)cc3)ccc2O[C@H]1CN(C)CC1CC1	i
C[C@H](CO)N1C[C@H](C)[C@H](CN(C)C(=O)NC2CCCC2)Oc2ncc(-c3cccnc3)cc2C1=O	i
C[C@H](CO)N1C[C@H](C)[C@@H](CN(C)C(=O)Nc2ccc(F)cc2)Oc2ccc(NS(=O)(=O)c3cccs3)cc2CC1=O	i
COC(=O)[C@]1(Cc2ccccc2)N=C(c2ccc(OCCCO)cc2)O[C@@H]1c1ccccc1N=[N+]=[N-]	i
C[C@H]1CN([C@@H](C)CO)C(=O)c2cc(NC(=O)Nc3ccc4c(c3)OCO4)ccc2O[C@H]1CN(C)Cc1ccc2c(c1)OCO2	i
CCCN1C[C@@H](C)[C@@H](OC)CN(C)C(=O)c2ccc(NS(C)(=O)=O)cc2OC[C@H]1C	i
CCCNC(=O)N1CC2(CCN(C(=O)C3CCC3)CC2)c2c([nH]c3cc(OC)ccc23)[C@@H]1CO	i
CC(C)C#Cc1ccc2c(c1)O[C@@H](CN(C)C(=O)c1cccc(F)c1)[C@H](C)CN([C@@H](C)CO)S2(=O)=O	i
COc1ccc(NC(=O)N[C@H]2CC[C@H](CCNC(=O)c3cc(Cl)cc(Cl)c3)O[C@H]2CO)cc1	i
C[C@H](CO)N1C[C@H](C)[C@H](CN(C)CC2CC2)Oc2cc(C#Cc3ccccc3)ccc2S1(=O)=O	i
CC(C)(C)[S@@](=O)N1Cc2cc(C(=O)NCCN3CCCC3)nc(-c3cccc(-c4ccc(C#N)cc4)c3)c2[C@H]1CCO	i
C[C@H]1CCCCO[C@@H](CN(C)Cc2ccccc2)[C@@H](C)CN([C@@H](C)CO)C(=O)c2cc(NC(=O)CCCN(C)C)ccc2O1	i
NCC[C@@H]1CC[C@H](NC(=O)C2CCCC2)[C@H](CO)O1	i
C[C@H](CO)N1C[C@H](C)[C@@H](CN(C)Cc2ccncc2)Oc2cc(-c3ccccc3F)ccc2S1(=O)=O	i
CCCNC(=O)N1C[C@@H]2[C@H](c3ccccc31)[C@@H](CO)N2CC1CCCC1	i
COc1ccc(S(=O)(=O)Nc2ccc3c(c2)CC(=O)N([C@H](C)CO)C[C@H](C)[C@@H](CN(C)C(=O)Nc2ccc4c(c2)OCO4)O3)cc1	i
O=C(N[C@@H]1CC[C@@H](CCNC(=O)C2CCCCC2)O[C@H]1CO)c1ccncc1	i
O=C(C[C@H]1C[C@H]2c3cc(NC(=O)c4ccc5c(c4)OCO5)ccc3O[C@H]2[C@@H](CO)O1)NCc1cccc(F)c1	i
C[C@@H]1CN([C@H](C)CO)C(=O)Cc2cc(NC(=O)Nc3cccc4ccccc34)ccc2O[C@H]1CN(C)Cc1ccccc1	i
CO[C@@H]1CN(C)C(=O)c2cc(NC(=O)C3CC3)ccc2OC[C@@H](C)N(CC2CC2)C[C@@H]1C	i
Cc1noc(C)c1NC(=O)N(C)C[C@H]1OCCCC[C@@H](C)Oc2ccc(NC(=O)Nc3ccc4c(c3)OCO4)cc2C(=O)N([C@H](C)CO)C[C@@H]1C	i
C[C@H]1CN([C@@H](C)CO)C(=O)c2cc(NC(=O)c3ccncc3)ccc2O[C@@H]1CN(C)Cc1ccc(-c2ccccc2)cc1	i
COc1cccc(NC(=O)C[C@H]2CC[C@H]3[C@H](COc4ccc(NC(=O)C5CCCCC5)cc4C(=O)N3C)O2)c1	i
C[C@H](CO)N1C[C@H](C)[C@@H](CN(C)Cc2ccncc2)OCCCC[C@H](C)Oc2ccc(NC(=O)NC3CCCCC3)cc2C1=O	i
COc1ccc(S(=O)(=O)Nc2ccc3c(c2)C(=O)N([C@@H](C)CO)C[C@H](C)[C@@H](CN(C)S(=O)(=O)c2ccc(OC)cc2)OCCCC[C@@H](C)O3)cc1	i
COc1ccc(NC(=O)N2C[C@H]3[C@@H](c4ccccc42)[C@H](CO)N3Cc2ccccn2)cc1	i
COc1ccc(CN(C)C[C@H]2Oc3ccc(NC(=O)Nc4ccc(F)cc4)cc3CC(=O)N([C@@H](C)CO)C[C@@H]2C)cc1	i
COCC(=O)N(C)C[C@@H]1Oc2cc(C3=CCCC3)ccc2S(=O)(=O)N([C@@H](C)CO)C[C@H]1C	i
CCNC(=O)[C@@H]1[C@@H](CO)[C@@H]2Cn3c(ccc(-c4ccccc4)c3=O)[C@@H]2N1Cc1ccccc1	i
C[C@H](NC(=O)C[C@H]1C[C@@H]2c3cc(NC(=O)CN(C)C)ccc3O[C@@H]2[C@H](CO)O1)c1ccccc1	i
C[C@@H]1CN([C@@H](C)CO)C(=O)Cc2cc(N(C)C)ccc2O[C@H]1CN(C)Cc1ccc(C(=O)Nc2ccccc2N)cc1	i
CNC[C@H]1OCc2cnnn2CCCC(=O)N([C@H](C)CO)C[C@H]1C	i
COc1ccc(CN(C)C[C@H]2Oc3ccc(NC(=O)Nc4ccc(OC)cc4)cc3CC(=O)N([C@@H](C)CO)C[C@H]2C)cc1	i
C[C@@H]1CCCCO[C@H](CN(C)CC2CCCCC2)[C@@H](C)CN([C@H](C)CO)C(=O)c2cc(NC(=O)Nc3ccc(C(F)(F)F)cc3)ccc2O1	i
C#CCN(C[C@@H]1[C@@H](OC(=O)Nc2cccs2)[C@@H](OC(=O)Nc2cccs2)C[C@H](C(=O)OC)[C@@H]1C(=O)OC)S(=O)(=O)c1ccc(C)cc1	i
CCCc1cn(CC[C@H]2CC[C@H](NC(=O)CCN3CCCCC3)[C@@H](CO)O2)nn1	i
O=C(Nc1ccc2c(c1)[C@@H]1C[C@H](CC(=O)N3CCOCC3)O[C@H](CO)[C@@H]1O2)c1cccnc1	i
CC(C)NC(=O)Nc1ccc2c(c1)C(=O)N([C@@H](C)CO)C[C@@H](C)[C@H](CN(C)Cc1ccc3c(c1)OCO3)OCCCC[C@@H](C)O2	i
COc1ccc(S(=O)(=O)Nc2ccc3c(c2)C(=O)N([C@@H](C)CO)C[C@H](C)[C@H](CN(C)S(=O)(=O)c2ccccc2)OCCCC[C@@H](C)O3)cc1	i
C[C@H](CO)N1C[C@H](C)[C@@H](CN(C)Cc2ccc(-c3ccccc3)cc2)Oc2c(NC(=O)C3CCOCC3)cccc2C1=O	i
C[C@@H]1CN([C@@H](C)CO)C(=O)c2cc(NC(=O)CCC(F)(F)F)ccc2O[C@@H]1CN(C)C(=O)Nc1ccc(C(F)(F)F)cc1	i
C[C@H](CO)N1C[C@H](C)[C@H](CN(C)S(=O)(=O)c2cccc(F)c2)Oc2ncc(C#CC3CCCCC3)cc2C1=O	i
CC(C)NC(=O)Nc1ccc2c(c1)CC(=O)N([C@@H](C)CO)C[C@H](C)[C@@H](CN(C)Cc1ccc(Oc3ccccc3)cc1)O2	i
CO[C@@H]1CN(C)C(=O)c2ccc(NC(=O)NC(C)C)cc2OC[C@H](C)N(Cc2ccccn2)C[C@H]1C	i
C/C=C/c1ccc2c(c1)O[C@@H](CN(C)C(=O)c1ccccc1F)[C@H](C)CN([C@H](C)CO)S2(=O)=O	i
C[C@H](CO)N1C[C@H](C)[C@@H](CN(C)C(=O)CC2CC2)Oc2cc(-c3cccnc3)ccc2S1(=O)=O	i
C[C@@H]1CN([C@@H](C)CO)C(=O)c2cc(C#Cc3ccccn3)cnc2O[C@@H]1CN(C)CC1CCOCC1	i
C[C@H](CO)N1C[C@H](C)[C@H](CN(C)C(=O)NC2CCCCC2)Oc2ccc(NC(=O)Nc3ccc(F)cc3)cc2C1=O	i
CC=Cc1ccc2n(c1=O)C[C@H]1[C@H](CO)[C@@H](C(=O)N(C)C)N(Cc3cccc(F)c3)[C@@H]21 (mixture of isomers)	i
O=C(c1ccccn1)N1CC2(C1)[C@H](c1ccccc1)[C@@H](CO)N2Cc1cccnc1	i

Only part of the results is shown; the hit share may differ from the screen's.
